# Compound activity (PubChem BioAssay)
# Rango-impB inh: qHTS Assay for Inhibitors of Rango (Ran-regulated importin-beta cargo) - Importin beta complex formation; Importin subunit beta-1 (Homo sapiens), Q14974; Rango CFP/YFP FRET sensor + importin beta, 45 min; Potency, µM (titrated, usually from 92.2 µM), for inactives: at the highest dose inhibition of complex formation; hit rate 0.031% among 340,000; active = rising FRET ratio curve, often small or poorly fitted; inconclusive = mostly compound fluorescence or quenching in the first reads; inactive = flat curves in all reads;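 note: potency is the fitted concentration of half-maximal effect; 0% = DMSO wells and 100% = buffer wells lacking importin beta; nearly all actives have a fitted effect of over 15% in size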
# Target sequence (Q14974 whole entry, looked up): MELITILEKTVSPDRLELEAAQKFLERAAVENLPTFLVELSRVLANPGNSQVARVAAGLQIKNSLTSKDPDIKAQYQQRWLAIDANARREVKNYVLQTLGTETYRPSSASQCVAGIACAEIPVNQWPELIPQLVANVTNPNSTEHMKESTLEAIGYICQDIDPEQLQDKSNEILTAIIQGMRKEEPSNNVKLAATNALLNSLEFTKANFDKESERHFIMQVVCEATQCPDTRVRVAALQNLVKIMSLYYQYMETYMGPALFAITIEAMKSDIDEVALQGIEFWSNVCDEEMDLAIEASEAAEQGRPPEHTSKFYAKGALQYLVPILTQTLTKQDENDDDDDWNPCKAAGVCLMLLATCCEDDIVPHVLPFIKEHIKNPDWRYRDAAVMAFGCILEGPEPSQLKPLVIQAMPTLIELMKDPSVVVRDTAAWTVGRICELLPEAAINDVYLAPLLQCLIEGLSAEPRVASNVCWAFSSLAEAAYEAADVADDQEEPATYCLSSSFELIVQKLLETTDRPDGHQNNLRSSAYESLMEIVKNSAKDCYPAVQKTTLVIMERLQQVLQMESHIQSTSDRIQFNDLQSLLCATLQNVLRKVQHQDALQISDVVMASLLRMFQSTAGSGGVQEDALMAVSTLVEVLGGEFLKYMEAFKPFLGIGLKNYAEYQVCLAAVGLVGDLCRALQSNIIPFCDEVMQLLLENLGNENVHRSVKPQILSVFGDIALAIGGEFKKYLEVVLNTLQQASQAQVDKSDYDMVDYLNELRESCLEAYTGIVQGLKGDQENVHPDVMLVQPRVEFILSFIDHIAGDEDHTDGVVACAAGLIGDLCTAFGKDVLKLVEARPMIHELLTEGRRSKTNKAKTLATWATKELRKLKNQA
#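 Inhibition scored from the CFP 486 nm/YFP 530 nm FRET ratio 45 min after adding 0.125 microM importin beta to 50 nM Rango biosensor preincubated 5 min with compound (room temperature, PBS with DTT, Tween-20, BSA). No-importin wells as positive control.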
# GLA inh pH 4.5: qHTS Assay for Inhibitors of Human alpha-Galactosidase at pH 4.5. activity change, negative = inhibition, % at 105 µM. purified enzyme, 4-MU-alpha-Gal fluorescence, pH 4.5. 230,000 tested, under 10 active. Alpha-galactosidase A (Homo sapiens), P06280. AID 1467, 2008; inconclusive = small, poorly fitted or top-dose-only inhibition, or a rising curve; inactive = flat fitted curve, though single readings scatter; no compound was filed as active;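 note: 0% = full activity with enzyme and -100% = basal without enzyme; dose as in the result columns while the protocol names 77 µM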
# Rango dissoc inh: qHTS Assay for Inhibitors of RanGTP induced Rango (Ran-regulated importin-beta cargo) - Importin beta complex dissociation; Biochemical FRET Rango-importin beta, RanGTP-induced dissociation; Potency, µM (doses to about 46.1 µM), for the others: at the top dose activity change, negative = inhibition; hit rate 0.071% among 340,000; Snurportin-1 (Homo sapiens) + GTP-binding nuclear protein Ran (Homo sapiens) + Importin …; active means falling FRET ratio curve, often poorly fitted, with flat reads before Ran was added; inconclusive means other falling curves, or compound fluorescence or quenching; inactive means flat or rising ratio curve;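 note: potency is the fitted concentration of half-maximal effect; % of control where 0% means no effect; nearly all actives have a fitted effect of over 45% in size; -100% = wells without RanGTP and RCC1; the record marks most hits as doubtful in a second field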
#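 Two FRET readings bracket the reaction: one 5 min after compound meets Rango–importin beta, another 45 min after RanGTP-RCC1 (0.6 uM Ran, 0.2 uM RCC1, 2 mM GTP) is added. Only the second defines inhibition.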
# miR-21 FLuc: qHTS Assay for Modulators of miRNAs and/orActivators of miR-21; HeLa miR-21 FLuc reporter, luciferase, 48 h; Potency, µM (titrated, usually from 38.3 µM), for the others: at the highest dose reporter change, positive = more light; 340,000 tested, under 10 active; active = well fitted rising curve with a large enough effect; inconclusive = small, poorly fitted or top-dose-only effect; inactive = no such curve, though single readings can be large or run the other way;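 note: % of control where 0% means no effect; miR-21 action dims this reporter so a rising signal means less miR-21 action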
#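 HeLa cells stably expressing CMV-driven firefly luciferase with a downstream miR-21 binding sequence, endogenously expressing miR-21, were treated with titrations (up to about 40uM final) for 48 hours at 37 degree Celsius. Luciferase luminescence was read after lysis.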
# Numbers without * were called inactive; u = inconclusive; x = not tested or not shown; [ ] = dose if it differs, or a comment. The list is partial; count on the stated rates, not on these rows.
SMILES,Rango-impB inh,GLA inh pH 4.5,Rango dissoc inh,miR-21 FLuc
CCOC(=O)C(C(=O)c1ccccc1)C1CC(C)NC(=S)N1 (centres undefined),u,12.3,-10.0%,-1.7%
CCCNC(=O)CN1CCN(S(=O)(=O)c2ccc(Br)s2)CC1,-0.9%,x,-17.6%,x
CCOCCCNC(=O)Cn1cnc2c(cnn2-c2ccc(F)cc2)c1=O,-0.8%,x,-16.7%,-1.9%
O=S1(=O)CCC(NC2CCCC2)C1 (centres undefined),-2.9%,x,-14.9%,0.3%
O=C(N/N=C/c1cccnc1)C(O)(c1ccccc1)c1ccccc1,-2.9%,-7.0,1.2%,-1.9%
O=C(O)c1ccccc1CC(CCc1ccccc1)C(=O)O (centres undefined),-0.1%,x,-3.9%,x
CCCN1CCC(N2CCN(c3cccc(C(F)(F)F)c3)CC2)CC1,-3.3%,-4.3,0.4%,-6.2%
CC(NC(=O)c1ccccc1NS(C)(=O)=O)c1ccccc1 (centres undefined),0.7%,3.5,6.2%,2.7%
CC(C)C[C@@H](CO)NS(=O)(=O)c1cc(Cl)ccc1F,-0.1%,x,6.6%,x
O=C(CSc1ccccn1)N/N=C/c1c[nH]c2ccccc12,-1.1%,-14.0,-7.6%,4.2%
COc1ccc(C(=O)Nn2cc3c(c2-c2ccccc2)c(=O)n(C)c(=O)n3C)cc1,7.4%,-5.9,29.2%,-21.4%
CCOc1ccc(C(=O)NCC(=O)N2CCc3ccccc3C2)cc1OCC,5.6%,-6.3[21.1 µM],-1.1%,2.9%
CCCC[C@@H]1CNC(=S)N1CCc1cccc(F)c1,-4.6%,7.5,0.6%,1.2%
Cc1ccc(C(CC(=O)N2CCCC2)c2ccccc2)c(O)c1 (centres undefined),-2.5%,x,9.9%,0.5%
Cc1cccc(/C(N)=N/OC(=O)CCc2ccccc2)c1,-2.2%,7.8,9.3%,-43.5%
Cc1cc(NC(=O)c2ccc([N+](=O)[O-])cc2Cl)no1,0.3%,x,0.2%,-36.8%
COc1ccc(-c2ccc(-c3cc(=O)oc4cc(OC)c(OC)c(OC)c34)cc2)cc1,0.2%,-7.8,-1.0%,x
Cc1ccc(Cl)cc1N1CCN(C(=O)Cn2ncn3cccc3c2=O)CC1,0.1%,x,0.2%,9.8%
CCCCn1c(N)c(C(=S)NC(=O)CC(C)(C)C)c(=O)n(C)c1=O,0.0%,-4.2,65.5%,2.9%
CC1Cc2ccccc2N1C(=O)Cn1cc([N+](=O)[O-])ccc1=O (centres undefined),3.5%,x,12.7%,x
Cc1c(Cl)cccc1NC(=O)c1cccc(NC(=O)CCC(=O)O)c1,2.4%,3.3,-6.7%,-1.0%
COC(=O)[C@H](CC(C)C)NC(=O)Nc1ccccc1F,-0.2%,3.3,10.7%,-2.3%
C/C=C/C=C\C(=O)Nc1cccc(C2=NOC3(C2)C[C@H](C(N)=O)N(C(=O)CC#N)C3)c1 (some centres undefined),-5.8%,3.4,-8.8%,0.2%
Cc1ccc(NC(=O)CSc2nc(=O)n3cc(C)ccc3n2)c(C)c1,2.2%,x,1.7%,x

# Three entries drawn at random from those above, as already listed:
SMILES,Rango-impB inh,GLA inh pH 4.5,Rango dissoc inh,miR-21 FLuc
O=C(N/N=C/c1cccnc1)C(O)(c1ccccc1)c1ccccc1,-2.9%,-7.0,1.2%,-1.9%
O=C(CSc1ccccn1)N/N=C/c1c[nH]c2ccccc12,-1.1%,-14.0,-7.6%,4.2%
Cc1cc(NC(=O)c2ccc([N+](=O)[O-])cc2Cl)no1,0.3%,x,0.2%,-36.8%

# Next part.
SMILES,Rango-impB inh,GLA inh pH 4.5,Rango dissoc inh,miR-21 FLuc
Cc1ccc(-n2cccn2)cc1,-0.3%,2.3,-0.4%,-0.7%
O=C(NN=Cc1ccccc1O)C(O)(c1ccccc1)c1ccccc1,-1.8%,x,-0.5%,x
COc1ccc(/C=C(\NC(=O)c2ccc(C)cc2)C(=O)Nc2c(C)n(C)n(-c3ccccc3)c2=O)cc1,-0.9%,2.6,23.7%,-3.7%
COc1ccccc1/C=c1\sc2nc(-c3ccccc3OC)nn2c1=O,2.7%,0.5,-8.2%,-2.7%
CC(=O)N1CCN(S(=O)(=O)c2cccc(C(=O)Nc3ccc4c(c3)CCC4)c2)CC1,-3.1%,-6.2,0.2%,-4.1%
CCC(C)(C)NC(=O)C(c1ccc(F)cc1)N(Cc1ccccc1)C(=O)c1cnccn1 (centres undefined),0.2%,-6.7,5.5%,-3.9%
CCCN1CNc2c(c(=O)[nH]c(=S)n2-c2ccccc2Cl)C1,-1.1%,-2.3,-18.8%,-3.2%
Cc1ccc(NC(=O)COC(=O)CCNS(=O)(=O)c2ccc(C)c(C)c2)cc1,0.1%,-18.5,0.8%,-0.8%
Cc1cccc(OCCCC(=O)Nc2ccc(N3CCCCC3)cc2)c1,2.1%,-7.3,21.5%,-0.8%
O=C(NNC(=S)Nc1ccc(Cl)cc1Cl)c1ccc(N2CCOCC2)c([N+](=O)[O-])c1,-1.0%,-17.4,3.4%,-17.5%
N#CCSc1nnc(-c2ccccc2O)n1Cc1ccccc1,4.1%,-2.7,-2.1%,-2.2%
COc1ccc(CC(=O)Nc2cc(NC(=O)Cc3ccc(OC)c(OC)c3)cc(C(=O)O)c2)cc1OC,2.5%,8.0,-9.6%,0.8%
CS(=O)(=O)N1CCN(C(=S)NCc2ccc(Cl)cc2)CC1,-0.9%,-5.7,1.9%,-0.5%
Cc1cccn2cc(-c3cccc(NC(=O)c4cccs4)c3)nc12,0.6%,2.5,-2.6%,-36.9%
Cn1c(SCc2ccc(Br)cc2)nnc1-c1cccs1,0.1%,-0.7,-6.5%,-37.1%
N#Cc1c(NC(=O)c2cc(-n3cnnc3)ccc2Cl)sc2c1CCCC2,0.3%,-13.7,-15.0%,6.6%
O=C1N[C@H](Cc2ccccc2)COC(=O)[C@H](Cc2ccc(F)cc2)C/C=C\C[C@H]1CC(=O)N(CCO)Cc1ccccc1,-0.5%,x,0.6%,x
N/C(=N\OC(=O)Cc1ccccc1)c1cccnc1,-1.5%,u,0.9%,-22.0%
CCC(=O)N(CC(=O)Nc1sc(C)c(C)c1C(N)=O)C1CCCC1,-3.9%,-4.4,0.2%,2.7%
CCOc1ccc(S(=O)(=O)NCCC(=O)NCC(c2ccccc2OC)N2CCCC2)cc1 (centres undefined),4.4%,x,0.5%,2.9%
CCOC(=O)c1ccccc1NS(=O)(=O)c1ccc(OC)cc1,u,0.8,-4.4%,14.3%
O=C1CC(c2ccco2)=Nc2ccccc2N1,-3.1%,-0.3,-7.7%,-2.2%
CCC(CC)NC(=O)c1cc(S(=O)(=O)N2CCCCC2)ccc1N1CCOCC1,-2.6%,x,-16.1%,x
CCOc1ccc(C(=O)Nc2cccc(C(=O)O)c2C)cc1Cl,-1.5%,3.3,1.2%,-24.6%
CCOc1ccc(C(=O)c2cc([N+](=O)[O-])ccc2Cl)cc1,-0.4%,4.6,-6.5%,-3.1%
Cc1ccccc1S(=O)Cc1ccc(C(=O)NCCN2CCOCC2)o1 (centres undefined),-2.4%,x,-2.1%,-2.1%
O=C(c1ccc2nc[nH]c2c1)N1CCN(c2ncc(C(F)(F)F)cc2Cl)CC1,1.6%,x,13.6%,3.9%
O=S(=O)(Nc1nc2ccccc2nc1Cl)c1ccc2c(c1)OCCO2,-3.2%,0.6,6.7%,-5.7%
CCCN1C2CCCC1CC(NC(=S)Nc1ccc(OC)cc1)C2 (centres undefined),-0.8%,3.8,21.3%,-2.5%
O=C(NCc1ccncc1)C1CCCN(S(=O)(=O)c2ccc(Br)cc2)C1 (centres undefined),-1.0%,x,0.6%,12.5%
COC(=O)c1ccc(NC(=O)CNc2ccccc2)cc1,0.2%,2.0,1.1%,-24.0%
CCN(C[C@H]1N[C@@](Cc2ccccc2)(C(=O)OC)[C@H]2C(=O)N(C)C(=O)[C@@H]12)C(=O)Nc1ccc(F)cc1,0.8%,x,-13.7%,x
COc1cccc(/C=C2\N=C(SC)SC2=O)c1OC,5.0%,-5.7,5.3%,-8.8%
COc1cc2cccc(OC)c(=O)c2c(OC)c1OC,1.1%,x,8.9%,0.0%
COc1ccc(CS(=O)c2nc(C)cc(C)c2S(C)(=O)=O)cc1 (centres undefined),-0.9%,-9.7,7.8%,0.0%
CCOC(=O)c1ccc(CNC(=O)Cn2nnc(-c3ccccc3)n2)o1,2.1%,-9.1,-2.9%,3.7%
O=C1Nc2ccccc2C1Cc1ccccc1 (centres undefined),u,-6.3,14.4%,-9.0%
CC(C)N1CCC(N2CCN(CCCn3cccn3)CC2CCO)CC1 (centres undefined),-1.6%,12.5,-4.5%,2.3%
CCC(=O)Oc1ccc2c(C)cc(=O)oc2c1C(=O)CC,3.3%,5.3,1.5%,0.4%
NC(=O)Cn1nc(-c2ccccc2)nc1-c1ccccc1,-0.5%,x,9.4%,x
COc1ccc(C(=O)Oc2ccc(/C=N/NC(=O)c3cccnc3)cc2OC)cc1,2.8%,x,-0.4%,x
CC(C)Nc1ncnc2c1cnn2-c1ccccc1,-4.1%,4.6,-0.3%,1.4%
CC(=O)c1cccc(NC(=O)CN2C(=O)C3C4C=CC(C4)C3C2=O)c1 (centres undefined),-1.4%,5.7,-9.2%,-2.9%
O=C(Nc1ccc(F)cc1)c1cccc(N2C(=O)C3C4C=CC(C5CC45)C3C2=O)c1 (centres undefined),2.6%,x,-4.9%,19.2%
O=S(=O)(NCCc1ccccc1F)c1cccc(S(=O)(=O)N2CCOCC2)c1,1.8%,-4.8,13.3%,-1.6%
CCn1c(CNC(=O)c2ccccc2Cl)cc2ccccc21,-1.8%,x,4.1%,-31.1%
CNC(C)C#Cc1ccc2c(=O)c3ccccc3oc2c1 (centres undefined),4.5%,x,-1.9%,x
O=C(O)c1ccc(C(=O)c2ccc3c(c2)C(=O)N(Cc2ccco2)C3=O)cc1,3.3%,0.0,-5.5%,-0.3%
O=C(NC(=S)Nc1ccc(N2CCOCC2)cc1)c1ccc(Cl)cc1,-0.8%,3.1,0.5%,-4.8%
Cc1nc2scc(C)n2c(=O)c1S(=O)(=O)NCC1CCN(Cc2ccc(F)cc2)CC1,3.2%,x,13.6%,2.2%
O=c1oc(-c2cccc(S(=O)(=O)N3CCOCC3)c2)nc2ccccc12,-0.1%,-7.0,1.2%,1.0%
COc1cccc(C2C(C(=O)Nc3cccnc3)=C(C)Nc3nnnn32)c1OC (centres undefined),0.1%,-7.8,-9.1%,3.4%
COc1ccccc1N1CCN(C2CCCN(C(=O)c3cc(C)oc3C)C2)CC1 (centres undefined),-3.4%,x,-10.0%,2.2%
COc1ccccc1C/C(N)=N/OC(=O)COc1ccc(C)cc1C,0.5%,x,13.9%,x
CC(=O)N1CCN(C(=O)c2ccc(S(=O)(=O)Nc3cccc(C(F)(F)F)c3)cc2)CC1,0.8%,x,-3.0%,x
CC1=C(O)C(=O)OC1c1c(Cl)cccc1Cl (centres undefined),-0.1%,8.1,-6.6%,-2.3%
Cc1ccc2nc(-c3ccc(NC(=O)C(C)Sc4nncs4)cc3)sc2c1 (centres undefined),u,x,7.7%,x
CCc1sc(C(=O)NNC(=O)CNC(=O)c2ccccc2F)cc1C,0.5%,x,2.8%,x
Cc1csc(SC(C)C(=O)Nc2ccccc2C)n1 (centres undefined),u,x,13.8%,x
CC1=NN(c2ccccc2)C(=O)/C1=C/c1cn(C)c2ccccc12,-0.1%,-6.6,3.0%,-3.4%

# The list continues:
SMILES,Rango-impB inh,GLA inh pH 4.5,Rango dissoc inh,miR-21 FLuc
COc1ccc(C(C)NC(=O)c2ccc(Br)cc2)cc1OC (centres undefined),-0.8%,-1.1,14.4%,-7.9%
COC(=O)c1cccc(NC(=O)CC2C(=O)NCCN2C(=O)Nc2ccccc2)c1 (centres undefined),-0.1%,x,-3.0%,1.5%
Cc1ccc(Cn2nnc3c(=O)n(CC(=O)N4CCCCC4)cnc32)cc1,-0.9%,11.6,-5.4%,-7.3%
N/C(Cc1ccc(Cl)cc1Cl)=N\OC(=O)c1ccccc1,0.5%,-8.7,9.4%,-12.0%
